Screening data deposited in PubChem BioAssay by several laboratories.
PABP polyA inh – blocks human PABP binding to poly(A) RNA | P11940 | fluorescence polarization | inhibition, % at 35 µM | 290,000 compounds, 1% hits | AID 2014;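 active = 50% or more with normal probe brightness, or confirmed in later tests; about a fifth of its hits are not listed in these tables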;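 also: calls also rest on retests at 20 µM and on dose response follow-up; controls were probe without protein and protein plus probe with vehicle; some compounds called inactive have numbers as strong as hits; many hits fall short of the cut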
Target sequence (P11940 whole entry, looked up): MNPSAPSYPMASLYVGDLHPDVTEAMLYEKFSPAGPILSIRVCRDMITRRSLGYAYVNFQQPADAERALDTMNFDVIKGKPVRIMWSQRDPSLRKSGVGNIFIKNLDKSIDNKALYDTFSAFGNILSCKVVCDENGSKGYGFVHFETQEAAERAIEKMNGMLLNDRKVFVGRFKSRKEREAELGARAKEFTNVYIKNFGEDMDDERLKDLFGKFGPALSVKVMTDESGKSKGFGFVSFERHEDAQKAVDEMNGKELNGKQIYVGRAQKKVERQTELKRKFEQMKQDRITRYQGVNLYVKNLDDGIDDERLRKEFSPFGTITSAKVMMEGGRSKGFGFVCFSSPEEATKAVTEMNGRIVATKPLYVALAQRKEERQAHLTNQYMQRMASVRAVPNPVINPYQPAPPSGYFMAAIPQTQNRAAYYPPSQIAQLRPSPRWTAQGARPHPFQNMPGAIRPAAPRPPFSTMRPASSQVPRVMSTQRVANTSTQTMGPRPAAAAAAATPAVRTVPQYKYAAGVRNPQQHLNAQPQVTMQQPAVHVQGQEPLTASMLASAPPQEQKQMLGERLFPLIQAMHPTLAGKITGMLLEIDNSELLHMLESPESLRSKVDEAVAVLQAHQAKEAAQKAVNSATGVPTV
CSC inhib – cancer stem cell inhibition. inhibition, % at 7.5 µM. AID 2717. 300,000 compounds, 1.1% hits. cancer stem cell-like cells viability, luminescence;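 active = mean at 75% or more and at least half the replicates too; tested in HMLE shEcad cells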;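 also: 0% = median of negative and 100% = median of positive control wells; the first replicate is given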
UUG fidelity – yeast start codon fidelity modulation; S. cerevisiae UUG-firefly luciferase reporter, luminescence/redox ratio; AID 602363; 350,000 compounds, 0.13% hits; activity score, % at 18.7 µM;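 active = replicate mean at a twofold rise or more, about +100% in these data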;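 also: firefly luciferase made from a UUG start codon reports start codon fidelity; reporter light over untreated wells divided by growth signal over untreated wells; some hits fall short of that in this replicate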
Rce1 inhib – blocks yeast Ras-converting enzyme. Q03530. yeast membranes, quenched prenylated peptide cleavage fluorescence. calls only. 290,000 compounds, 0.27% hits. AID 2563;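 active = fall in fluorescence gain of 50% or more versus controls, with final raw signal at or below 3038400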;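 also: plate controls were neutral control wells for no effect and wells lacking membranes for full effect; tested at 10 µM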
MT1-MMP act inh – blocks activation of human MT1-MMP | GFP/RFP ratio change, % at 20 µM | HT1080 RFP-PRO-GFP cells, GFP/RFP ratio fluorescence, overnight; percent of plate control window, DMSO zero | 360,000 compounds, 0.061% hits;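 active = GFP/RFP ratio change of at least 30% with cell ATP level not reduced by more than half and red fluorescence within 50% of control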; also: strong numbers were not always called active
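Compound: 20 µM single dose, 1% DMSO / System: HT1080 RFP-PRO-GFP cells / Controls: DMSO and RFP-L50D-GFP cell wells / Read-out basis: GFP/RFP fluorescence ratio / Schedule: overnight compound exposure at 37 °C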
HIV Env fusion – HIV envelope-mediated fusion inhibition. HeLa-JRFL Env/CEM21 cell fusion, luciferase. inhibition, % at 12.3 µM. 360,000 compounds, 1.1% hits;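 active = mean replicate inhibition score of at least 50 and every replicate individually at or above 50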;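 also: 0% = plate neutral controls and 100% = maraviroc near 300 nM; one replicate is shown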
eIF4H inh – inhibitors of RNA binding by human eIF4H | Q15056 | eIF4H fluorescence polarization binding assay | inhibition, % at 35 µM | 290,000 compounds, 0.94% hits | AID 2012;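 active = 50% or more with normal probe brightness, or confirmed in later tests; about a fifth of its hits are not listed in these tables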;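 also: calls also rest on retests at 20 µM and on dose response follow-up; 0% = protein and probe with vehicle and 100% = probe without protein; strong numbers were not always called active; many hits fall short of the cut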
MT1-MMP act inh RFP – also measured in MT1-MMP act inh; calls as there; RFP signal change, %; measured here: RFP expression control read;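 0 = vehicle wells; hits needed this value within 50% of zero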
* hit, by the source's call; i = inactive; · = no result given.

Labels used below: A = PABP polyA inh; B = CSC inhib; C = UUG fidelity; D = Rce1 inhib; E = MT1-MMP act inh; F = MT1-MMP act inh RFP; G = HIV Env fusion; H = eIF4H inh
1) COc1ccc(S(=O)(=O)Nc2cc3c4c(c2)CCN4C(=O)CC3)cc1OC
  A: · | B: -1.5 | C: 4.3 | D: i | E: 2.6 | F: 4.1 | G: -18.2 | H: ·

2) O=S(=O)(NC1CCCCC1N1CCN(c2ccc(F)cc2)CC1)c1ccc(Cl)cc1 (stereo unspecified)
  A: 1.2 | B: 12.1 | C: -9.9 | D: i | E: -2.4 | F: -5.8 | G: · | H: -1.0

3) Cc1ccccc1NC(C)C(=O)N/N=C/c1c[nH]c2ccccc12 (stereo unspecified)
  A: 2.5 | B: -4.1 | C: · | D: i | E: -8.7 | F: -2.1 | G: -6.3 | H: -3.6

4) O=C(COC(=O)Cc1ccc(S(=O)(=O)N2CCOCC2)s1)Nc1ccc2c(c1)OCO2
  A: 6.8 | B: -3.0 | C: -10.3 | D: i | E: 0.9 | F: 7.5 | G: -87.3 | H: 3.1

5) CCCCN(C)c1c(C)nc2ccc(C(=O)Nc3cc(-c4ccccc4)ccc3OC)cn12
  A: · | B: · | C: -10.4 | D: · | E: -2.8 | F: -3.4 | G: 26.1 | H: ·

6) CCc1ccc(NC(=O)CSc2nc(CSc3ccc(C)cc3)cc(=O)[nH]2)cc1
  A: 1.3 | B: 8.5 | C: · | D: i | E: -1.3 | F: 0.5 | G: -16.5 | H: -5.6

7) CCn1ccc(C(=O)NCc2ccc3c(c2)OCO3)n1
  A: -2.3 | B: -14.3 | C: -16.4 | D: i | E: 1.8 | F: 4.6 | G: · | H: -16.3

8) COc1ccc(-c2sc3ccccc3c2-c2ccc(OCCN(C)C)cc2)cc1
  A: · | B: 142.0* | C: -24.6 | D: · | E: -3.1 | F: -5.4 | G: 16.3 | H: ·

9) Cc1ccc(S(=O)(=O)NCCN2CCOCC2)s1
  A: -8.0 | B: -5.9 | C: -19.8 | D: i | E: 1.2 | F: 3.1 | G: 3.7 | H: -11.2

10) O=C(NC(=S)NCCC1=CCCCC1)c1cccnc1
  A: 6.3 | B: -12.6 | C: · | D: · | E: 2.1 | F: -3.2 | G: 12.9 | H: -8.2

11) COc1cc2c(cc1OC)CN(C(=O)c1cc(S(=O)(=O)N3CCOCC3)c(Cl)cc1Cl)CC2
  A: 9.2 | B: · | C: -17.3 | D: i | E: -4.3 | F: -16.7 | G: 19.9 | H: 9.1

12) Cc1ccc(CN2CCN(/N=C/c3ccc(O)c(O)c3)CC2)cc1
  A: 6.5 | B: 20.3 | C: -16.4 | D: · | E: 0.5 | F: -4.3 | G: 18.9 | H: 47.4

13) Cc1onc(-c2c(F)cccc2Cl)c1C(=O)c1ccccc1
  A: 6.6 | B: -0.6 | C: -8.7 | D: i | E: 1.4 | F: 1.1 | G: 2.8 | H: -1.6

14) CCOc1ccc(OCCSc2ccc(S(=O)(=O)N3CCN(C)CC3)cn2)cc1
  A: · | B: 29.1 | C: 2.7 | D: · | E: 2.5 | F: -5.9 | G: · | H: ·

15) Cc1cccc(NC(=O)C2CCN(C(=O)c3ccc(F)cc3)CC2)n1
  A: · | B: -6.3 | C: -8.8 | D: i | E: -5.3 | F: -2.7 | G: -1.3 | H: ·

16) NC(=O)C1CCN(C(=O)CCC(=O)c2cccs2)CC1
  A: · | B: · | C: -5.3 | D: · | E: 0.0 | F: 4.5 | G: -14.4 | H: ·

An excerpt of these results, in transposed form.
(8) COc1ccc(-c2sc3ccccc3c2-c2ccc(OCCN(C)C)cc2)cc1
(9) Cc1ccc(S(=O)(=O)NCCN2CCOCC2)s1
Screen / compound no.	8	9
PABP polyA inh	·	-8.0
CSC inhib	142.0*	-5.9
UUG fidelity	-24.6	-19.8
Rce1 inhib	·	i
MT1-MMP act inh	-3.1	1.2
MT1-MMP act inh RFP	-5.4	3.1
HIV Env fusion	16.3	3.7
eIF4H inh	·	-11.2

No new results follow: 5 of the compounds above.
Labels used below: A = PABP polyA inh; B = CSC inhib; C = UUG fidelity; D = Rce1 inhib; E = MT1-MMP act inh; F = MT1-MMP act inh RFP; G = HIV Env fusion; H = eIF4H inh
1) COc1ccc(S(=O)(=O)Nc2cc3c4c(c2)CCN4C(=O)CC3)cc1OC
  A: · | B: -1.5 | C: 4.3 | D: i | E: 2.6 | F: 4.1 | G: -18.2 | H: ·

2) O=S(=O)(NC1CCCCC1N1CCN(c2ccc(F)cc2)CC1)c1ccc(Cl)cc1 (stereo unspecified)
  A: 1.2 | B: 12.1 | C: -9.9 | D: i | E: -2.4 | F: -5.8 | G: · | H: -1.0

3) Cc1ccccc1NC(C)C(=O)N/N=C/c1c[nH]c2ccccc12 (stereo unspecified)
  A: 2.5 | B: -4.1 | C: · | D: i | E: -8.7 | F: -2.1 | G: -6.3 | H: -3.6

4) O=C(COC(=O)Cc1ccc(S(=O)(=O)N2CCOCC2)s1)Nc1ccc2c(c1)OCO2
  A: 6.8 | B: -3.0 | C: -10.3 | D: i | E: 0.9 | F: 7.5 | G: -87.3 | H: 3.1

5) CCCCN(C)c1c(C)nc2ccc(C(=O)Nc3cc(-c4ccccc4)ccc3OC)cn12
  A: · | B: · | C: -10.4 | D: · | E: -2.8 | F: -3.4 | G: 26.1 | H: ·
